BRCT inh green: BRCA1 BRCT-phosphoprotein interaction inhibition; Potency, µM (titrated, usually from 76.9 µM), inactives show at the highest dose activity change, negative = inhibition, usual class: inhibitors; AID 875; P38398; BRCA1 BRCT-phosphopeptide binding, green fluorescence polarization; hit rate 0.05% among 75,000;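 further: potency means the concentration at half of the fitted maximal effect; plate controls were peptide without protein for full effect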
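Compounds were incubated for 12 min at room temperature with a complex of 100 nM fluorescein-tagged pBACH1 decapeptide and 250 nM His-tagged BRCT protein. Buffer was phosphate pH 7.3 with EDTA, DTT and Tween 20. Disruption of binding lowers the polarization signal.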
BRCT inh red: disrupts BRCA1 BRCT binding to phosphoprotein, red fluorophore readout; Potency, µM (series often up to 76.9 µM), for the others: at the highest dose activity change, negative = inhibition, actives largely listed as inhibitors; BRCT-phosphopeptide binding, red fluorescence polarization; hit rate 0.03% among 75,000; further: on the % scale 0 is the no-effect control and ±100 the full control effect
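Fluorescence polarization: 100 nM His-tagged BRCA1 BRCT with 100 nM TAMRA-labelled phospho-BACH1 decapeptide, phosphate buffer pH 7.3 with 150 mM NaCl, DTT, 0.01% Tween 20; 12 min RT. Binding inhibition seen as FP decrease.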
USP2a inhib: blocks human ubiquitin-specific protease USP2a. USP2a enzymatic assay, qHTS inhibition. Potency, µM (series often up to 38.3 µM), inactives show at the highest dose activity change, negative = inhibition, actives largely listed as inhibitors. hit rate 0.1% among 60,000. AID 927;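 further: potency means the concentration at half of the fitted maximal effect; nearly all actives have a fitted effect of over 60% in size; plate controls were DMSO for no effect and NEM full inhibition control for full effect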
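Coupled readout: USP2-cleaved Ub-PLA2 (20nM final) turns over NBD C6-HPC (20uM final), Ex 460nm/Em 535nm after 2.5 h, time-zero read flagging artifacts. Enzyme (20nM final, pH 8.0 Tris) given 30 min RT with compound first; NEM defines full inhibition.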
Texas Red fluor: Texas Red region autofluorescence; hit rate 0.06% among 59,000; Compound fluorescence, Texas Red channel, 547/618 nm; active compounds read high; max dye-equivalent concentration, M; in the data active means max dye-equivalent concentration above about 10 nM; inconclusive means between about 1.1 nM and that limit
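Texas Red-region profiling: compounds in 100 mM Tris pH 8.0 were read at 547/618 nm after 15 min at room temperature. Intensities were normalized against a six-point Texas Red standard series to give dye-equivalent concentration.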
Rhodamine fluor: rhodamine region autofluorescence; hit rate 0.05% among 59,000; Rhodamine-region fluorescence, 547/598 nm, Tris buffer; active compounds read high; AID 594; max dye-equivalent concentration, M; in the data active means max dye-equivalent concentration above about 11 nM; inconclusive means between about 1.1 nM and that limit
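qHTS spectral profiling of compounds without any target or enzyme present, in pH 8.0 Tris buffer; plates were read after a 15-minute room-temperature incubation using the rhodamine-region filter set.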
HEK293 cAMP cs: counter-screen for TSHR agonists: cAMP increase in parental HEK293. parental HEK293 CNG cAMP sensor, membrane potential fluorescence. Potency, µM (titrated, usually from 57.1 µM), for the others: at the top dose activation, hits mostly activators. hit rate 2.5% among 73,000. AID 938; further: potency means the concentration at half of the fitted maximal effect; % of control where 0% means no effect; nearly all actives have a fitted effect of over 55% in size
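Parental HEK 293 cells stably expressing a modified CNG channel (no TSHR) report cAMP rise as membrane depolarization. Membrane potential dye with 100 uM RO 20-1724 was loaded for 60 min at room temperature, then compound added for 30 min; fluorescence read at 590 nm.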
Fluorescein fluor: compound fluoresces in the fluorescein spectral region. Compound autofluorescence, 480/540 nm, fluorescein-equivalent; active compounds read high. max fluorescein-equivalent concentration, M. hit rate 0.91% among 59,000; in the data active means max fluorescein-equivalent concentration above about 10 nM; inconclusive means between about 1.1 nM and that limit
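Read-out is intrinsic compound fluorescence at 480/540 nm (excitation/emission), expressed as dye-equivalent concentration using a fluorescein standard series run on every plate. Compounds sat 15 min at room temperature in 100 mM Tris, pH 8.0.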
Active calls of the source: *; i = inactive; u = inconclusive; x = no result given; [ ] = dose if it differs, or a comment. Unless noted, the call rests on the fitted dose curve; in most records, active means well fitted curve in the direction sought with a large enough effect; inconclusive means small, poorly fitted or top-dose-only effect, or another doubt; inactive means no such curve, though single readings can be large; an effect the other way counts as inactive or inconclusive. A portion of the library, so the mix of outcomes need not match the whole.

SMILES	BRCT inh green	BRCT inh red	USP2a inhib	Texas Red fluor	Rhodamine fluor	HEK293 cAMP cs	Fluorescein fluor
CC1Cc2ccccc2N1C(=O)CSc1nnc2n1C(C)(C)Cc1ccccc1-2 (stereo not given)	-1.0%	0.3%	19.6%	u	i	u	u
O=C(CCN1C(=O)C2CC=C(Cl)CC2C1=O)N1CCCCC1 (stereo not given)	-10.8%	-1.0%	-2.8%	i	i	-2.9%	2.93e-08M*
CCNc1ncc2nc(C)c(=O)n(CCC#N)c2n1	-1.8%	-0.9%	-0.8%	i	i	1.5%	i
CCCCCn1c(=NC(=O)c2ccco2)c(C(=O)OCC)cc2c(=O)n3ccccc3nc21	-2.2%	-1.2%	14.8%	u	i	-31.4%[inhibitor]	i
CCNc1ncc2nc(-c3ccccc3)c(=O)n(C3CC3)c2n1	-1.7%	-0.4%	-9.5%	i	i	3.5%	i
COCCn1c(=O)c(-c2ccc(Cl)cc2)nc2cnc(OCc3ccccc3)nc21	-0.7%	-0.6%	38.0%[activator]	i	i	1.0%	i
COc1ccc(-c2nc3cnc(N4CCOCC4)nc3n(CCc3ccccc3)c2=O)cc1	-2.3%	-0.5%	91.9%[activator]	i	i	21.9%	u
COc1ccc(-c2nc3cnc(N4CCOCC4)nc3n(Cc3cccc(OC)c3)c2=O)cc1	0.5%	0.3%	70.7%[activator]	u	i	8.0%	i
O=C(O)c1cccnc1	-1.1%[3.08 µM]	1.4%	-4.6%	u	i	3.5%[25.6 µM]	i
Cn1nnnc1SCc1ccc(C(=O)Nc2nccs2)cc1	0.7%	1.1%	27.4%	u	i	-3.9%	i
COc1ccc(CCn2c(N)c(C(=O)NCc3ccco3)c3nc4ccccc4nc32)cc1OC	4.0%	1.8%	40.8%[activator]	u	i	-15.6%	i
C=CCOC(=O)C1=C(C)NC(SC)=C(C#N)C1c1ccc(OCC)cc1 (stereo not given)	-1.9%	-4.0%	-16.0%	u	i	15.3%	u

Entries of single compounds from above. Screens in order: BRCT inh green	BRCT inh red	USP2a inhib	Texas Red fluor	Rhodamine fluor	HEK293 cAMP cs	Fluorescein fluor
CC1Cc2ccccc2N1C(=O)CSc1nnc2n1C(C)(C)Cc1ccccc1-2 (stereo not given) as listed: -1.0%	0.3%	19.6%	u	i	u	u
CCNc1ncc2nc(C)c(=O)n(CCC#N)c2n1 as listed: -1.8%	-0.9%	-0.8%	i	i	1.5%	i

Going on with the list:
SMILES	BRCT inh green	BRCT inh red	USP2a inhib	Texas Red fluor	Rhodamine fluor	HEK293 cAMP cs	Fluorescein fluor
COCCn1c(C)cc(C(=O)CSc2nc(C)cc(C)c2C#N)c1C	1.3%	-0.4%	4.0%	i	i	17.4%	i
COc1ccc(-n2c(=O)c(-c3cc(F)cc(F)c3)nc3cnc(N4CCOCC4)nc32)cc1	2.5%	-1.9%	98.1%[activator]	u	i	26.4%	i
COc1cccc(C2=CC(c3ccc(C)cc3)n3ncnc3N2)c1 (stereo not given)	-4.9%	-1.4%	30.9%[activator]	u	i	15.8µM*	1.03e-08M*
OCCN1CCN(c2nc(-c3ccccc3)c3cc(Cl)ccc3n2)CC1	2.6%	0.1%	44.9%[activator]	i	i	u	u
COc1ccc(C(C)=O)c(Oc2nc(CN3CCOCC3)nc3scc(-c4cccs4)c23)c1	-0.3%	-1.0%	32.5%[activator]	i	i	u	u
Cn1c(=N)c(S(=O)(=O)c2ccc(Cl)cc2)cc2c(=O)n3ccccc3nc21	-2.0%	1.5%	3.5%	i	i	2.2%	u
CCCCc1cc(=O)oc2c(CN3CCCC3)c(O)c(Cl)cc12	-2.6%	-0.1%	8.8%	i	i	-2.0%	i
CN1CCN(c2ncc3nc(-c4cn(C)c5ccccc45)c(=O)n(C[C@H]4CCCO4)c3n2)CC1	-3.3%	-0.4%	123.3%[activator]	i	i	-3.4%	i
Cc1cc2n(n1)C(c1ccc(N(C)C)cc1)Nc1ccccc1-2 (stereo not given)	-1.8%	-0.5%	1.6%	u	i	-16.2%	u
CCCCn1c(SCC(=O)Nc2ccc(OC)cc2)nc2ccc(N3CCOCC3)cc2c1=O	-1.8%	-2.2%	35.3%[activator]	u	i	-7.6%	u
Cn1c(=O)c(CCc2ccccc2)nc2cnc(Nc3ccccc3)nc21	-1.6%	1.2%	4.7%	i	i	18.9%	u
Cc1ccc(S(=O)(=O)c2cc3c(=O)n4ccccc4nc3n(CC3CCCO3)c2=N)cc1C (stereo not given)	1.5%	0.0%	-3.6%	i	i	-27.5%	u
COc1ccc(C2C3=C(CC(C)(C)CC3=O)N(CCN3CCOCC3)C3=C2C(=O)CC(C)(C)C3)cc1	-0.1%	-0.9%	10.3%	u	i	22.6%	i
CCCCCn1c(N)c(C#N)c2nc3ccccc3nc21	0.7%	-1.5%	18.6%	u	i	-2.4%	u
Cc1c(O)c(CN2CCCC2)cc2c3c(c(=O)oc12)CCC3	-2.6%	0.0%	-4.9%	i	i	4.5%	i
COc1ccc(-c2nc3cnc(N(C)C)nc3n(Cc3ccc(F)cc3)c2=O)cc1	-2.1%	0.5%	-0.2%	i	i	1.5%	i
Nc1ccc2c3c(cccc13)C(=O)NC2=O	12.6µM*	-7.2%	21.2%	i	u	23.9%	1.98e-06M*
CCNc1ncc2nc(-c3cccs3)c(=O)n(C)c2n1	-0.8%	-0.6%	186.9%[activator]	i	i	-5.2%	u
COC(=O)C1=CNC=C(C(=O)OC)C1c1ccccc1Cl	-1.3%	-1.9%	3.7%	i	i	1.8%	i
COc1ccc(CCn2c(-c3ccco3)nc3nc4ccccc4nc32)cc1	3.8%	-0.3%	26.2%	i	i	-6.5%	i
c1ccc(Cn2c(-c3ccco3)nc3nc4ccccc4nc32)cc1	4.0%	0.2%	40.4%[activator]	i	i	18.9%	u
CN(C)c1ccc(/C=C/c2cc[n+]([O-])cc2)cc1	53.3%[activator]	-0.6%	25.8%	u	i	-5.8%	2.85e-07M*
COc1ccc(CNC(=O)c2cc3c(=O)n4ccccc4nc3n(Cc3cccnc3)c2=N)cc1	3.9%	1.9%	26.3%	i	i	-3.4%	1.15e-07M*
CCc1cc(=O)oc2c(C)c(O)c(CN3CCCCC3)cc12	-2.8%	-1.1%	-0.7%	i	i	7.0%	u
COc1ccc(CCn2c(=N)c(C(=O)N3CCN(C)CC3)cc3c(=O)n4ccccc4nc32)cc1	0.4%	0.4%	13.2%	i	i	-62.2%[inhibitor]	u
CN(C)CCNc1c2c(c(C#N)c3nc4ccccc4n13)CCCC2	-2.2%	-2.1%	5.4%	u	i	-93.8%[inhibitor]	i
COc1ccc(-n2c(=O)c(-c3cccs3)nc3cnc(N4CCNCC4)nc32)cc1	-3.8%	0.1%	146.7%[activator]	i	i	-19.8%	i
COCCn1c(=O)c(-c2cc(F)cc(F)c2)nc2cnc(N3CCOCC3)nc21	-0.2%	-1.9%	63.8%[activator]	i	i	u	i
CCC(c1nnnn1Cc1ccccc1)N(Cc1ccco1)Cc1cc2cc(OC)ccc2[nH]c1=O (stereo not given)	1.8%	-0.6%	16.0%	i	i	u	u
COc1ncc2nc(-c3cc(F)cc(F)c3)c(=O)n(Cc3cccs3)c2n1	-1.2%	-0.2%	164.3%[activator]	i	i	7.2%	i
COc1ccc(-c2cc(=O)n(-c3nc4ccccc4[nH]3)[nH]2)cc1	0.8%	-0.7%	33.4%[activator]	i	i	2.6%	u
O=C1C2CC=C(Cl)CC2C(=O)N1CCc1ccccc1 (stereo not given)	-3.6%	0.6%	17.4%	i	i	2.0%	2.03e-08M*
CCNc1ncc2nc(-c3ccc(OC)cc3)c(=O)n(Cc3cccc(OC)c3)c2n1	80.7%[activator]	-1.0%	36.1%[activator]	i	i	u	i
COc1ccc(OC)c(N=Cc2c(O)[nH]c3ccccc23)c1	-0.1%	-0.2%	-2.1%	i	i	-18.2%	u
N=c1c(C(=O)NCc2ccc(F)cc2)cc2c(=O)n3ccccc3nc2n1CCCN1CCOCC1	-2.9%	-0.4%	6.2%	i	i	16.9%	i
COc1cc2c(cc1OC)C1=C(C#N)COCN1CC2	0.2%	-2.2%	-0.5%	i	i	-14.2%	i
CCOc1ccc2nc3sc(C(=O)N4CCN(C)CC4)c(N)c3cc2c1	0.7%	-0.8%	15.2%	u	i	-6.6%	u
COc1ccc(-c2nc3cnc(N4CCNCC4)nc3n(CCc3ccccc3)c2=O)cc1	-2.1%	-0.9%	118.2%[activator]	i	i	-25.8%	i
CCOC(=O)N1CCN(C(=O)COc2ccc3c(c2)C(=O)CC2(CCN(C(C)=O)CC2)O3)CC1	0.0%	0.0%	3.0%	i	i	5.6%	i
COc1ccc(-c2cc(=O)oc3c(C)c(O)c(CN(C)C)cc23)cc1	0.5%	-0.2%	-1.0%	i	i	3.8%	u
CCNc1ncc2nc(CCc3ccccc3)c(=O)n(-c3ccccc3)c2n1	47.5%[activator]	2.2%	144.1%[activator]	i	i	-1.9%	i
CCC(c1nnnn1C1CCCC1)N(Cc1cccs1)Cc1cc2cc(C)ccc2[nH]c1=O (stereo not given)	0.6%	0.9%	x	i	i	24.7%	i
O=c1c(-c2ccc(Cl)cc2)nc2cnc(N3CCOCC3)nc2n1C[C@H]1CCCO1	-1.9%	-3.3%	57.7%[activator]	i	i	6.5%	i
N#CCCn1c(=O)c(-c2ccc(Cl)cc2)nc2cnc(Nc3ccccc3)nc21	6.9%	1.7%	298.6%[activator]	i	i	6.4%	u
O=S(=O)(Nc1nc2ccccc2nc1N1CCN(c2ccccn2)CC1)c1ccc(Cl)cc1	-1.7%	-2.3%	16.5%	i	i	u	1.7e-08M*
CN(C)c1ncc2nc(-c3ccc(Cl)cc3)c(=O)n(C3CC3)c2n1	-3.2%	-0.4%	52.9%[activator]	i	i	14.2%	i
O=c1c(-c2ccccc2)nc2cnc(N3CCOCC3)nc2n1C[C@H]1CCCO1	1.5%	-1.2%	29.8%	i	i	15.9%	i
O=C(c1cccs1)c1ccc(-c2cccs2)s1	3.8%	-1.4%	4.3%	u	i	4.4%	u

6 compounds from above, arranged by number of heavy atoms, ascending:
SMILES	BRCT inh green	BRCT inh red	USP2a inhib	Texas Red fluor	Rhodamine fluor	HEK293 cAMP cs	Fluorescein fluor
Cc1c(O)c(CN2CCCC2)cc2c3c(c(=O)oc12)CCC3	-2.6%	0.0%	-4.9%	i	i	4.5%	i
CCOc1ccc2nc3sc(C(=O)N4CCN(C)CC4)c(N)c3cc2c1	0.7%	-0.8%	15.2%	u	i	-6.6%	u
O=c1c(-c2ccccc2)nc2cnc(N3CCOCC3)nc2n1C[C@H]1CCCO1	1.5%	-1.2%	29.8%	i	i	15.9%	i
COCCn1c(=O)c(-c2ccc(Cl)cc2)nc2cnc(OCc3ccccc3)nc21	-0.7%	-0.6%	38.0%[activator]	i	i	1.0%	i
O=S(=O)(Nc1nc2ccccc2nc1N1CCN(c2ccccn2)CC1)c1ccc(Cl)cc1	-1.7%	-2.3%	16.5%	i	i	u	1.7e-08M*
COc1ccc(CNC(=O)c2cc3c(=O)n4ccccc4nc3n(Cc3cccnc3)c2=N)cc1	3.9%	1.9%	26.3%	i	i	-3.4%	1.15e-07M*

Screening results as filed in PubChem BioAssay.
